ugtP null kill – compounds lethal to S. aureus RN4220 ugtP deletion mutant | growth inhibition, % (concentration not given with the values) | AID 1259309 | hit rate 0.54% among 330,000 | OD600 growth, 16 h; some inactives read as strong as hits;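 active = z-score under -3 and OD600 up to 0.15 on both plates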;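 also: plate controls were untreated wells for no effect and antibiotic for full effect; wells of about 80 µL received 100 nL stock; the first replicate is given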
Mtb hypoxia inh – Mtb hypoxia fluorescent reporter inhibition; fluorescence inhibition, % (test concentration not listed); hit rate 0.1% among 300,000; M. tuberculosis hypoxia-regulated fluorescent reporter, fluorescence;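 active = 35 to 45% if threefold the growth effect, above 45% if 1.5-fold the growth effect; inactive = the rest, general growth blockers included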;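 also: wells of about 50 µL received 100 nL stock; 0% = vehicle wells and 100% = reference inhibitor wells; whole bacteria with a GFP reporter of the hypoxia response; strong numbers were not always called active; many hits fall short of the cut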
BJeLR lethal – kills HRASV12-expressing BJeLR cells; BJeLR (HRASV12) viability, CellTiter-Glo ATP luminescence, 48 h; reference of the scale not given here; inhibition, % (concentration not given with the values); hit rate 0.17% among 300,000; AID 1554;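 active = replicate mean above 50%; inconclusive = above 50% but judged a plate artefact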;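 also: 50 nL library stock added to about 25 µL; numbers are from one replicate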
RN4220 kill – kills Staphylococcus aureus RN4220. AID 1259311. S. aureus RN4220 growth, OD600, 16 h. hit rate 0.33% among 330,000. inhibition, % (test concentration not listed);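 active = z-score of -3 or lower and OD600 up to 0.18 on both plates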;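 also: plate controls were untreated cells for no effect and reference antibiotic for full effect; stock transfer was 100 nL into about 80 µL; one replicate is shown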
Autofluor counter – compound fluorescence in toxin protease inhibitor counterscreen; compound autofluorescence counterscreen, microsphere flow cytometry; hits give high values; fluorescence intensity (test concentration not listed); hit rate 3.1% among 360,000; AID 624483;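 active = at least 3 SD above the mean of all compounds, about 16000 in these data; inconclusive = too few beads counted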;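 also: 100 nL of 1 mM stock went into each well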
PrP UTR inh – inhibition of PrP 5' UTR reporter expression | cell-based PrP 5' UTR mRNA reporter, plate reader | inhibition, % (concentration not given with the values) | hit rate 0.35% among 340,000;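 active = every replicate at 50% or more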;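 also: 0 = median of the neutral control wells; tested in H4 reporter cells; numbers are from one replicate; inactives centre near -14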
Mtb hypoxia inh growth – also measured in Mtb hypoxia inh; calls as there; growth inhibition, %; measured here: M. tuberculosis growth (absorbance);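 0% = vehicle and 100% = reference antibiotic; read after six days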
Starred values were filed as active, the others as inactive; u = inconclusive; x = not tested or not shown. No enrichment for hits. About 4.1% of those tested had a hit in this group.

SMILES | ugtP null kill | Mtb hypoxia inh | Mtb hypoxia inh growth | BJeLR lethal | RN4220 kill | Autofluor counter | PrP UTR inh
O=C(Nc1ccccc1N1CCCC1)c1ccco1 | 1 | x | x | -3 | 1.1 | 3526 | -23
Cc1nnc(SCC(=O)Nc2nonc2C)s1 | 3 | 7 | 3 | 5 | 1.7 | 3013 | -17
O=C(Nc1nccs1)c1ccc(S(=O)(=O)NCC2CCCCC2)cc1 | -10 | 1 | 3 | -2 | 3.8 | 9926 | -41
CCc1ccc(S(=O)(=O)NN=Cc2cn(CC(N)=O)c3ccccc23)cc1 | 45 | -3 | -4 | x | -5.8 | x | x
Cc1c(NC(=O)COC(=O)/C=C/c2ccc(Cl)cc2)c(=O)n(-c2ccccc2)n1C | 9 | 15 | 8 | 6 | 2.1 | 5294 | 6
Cc1ccc(-c2cn(S(=O)(=O)c3ccc(C)cc3)nc2N)cc1 | -2 | 11 | 4 | -9 | 1.8 | 24762* | -35
O=C(NC1CC(=O)N(c2ccccc2)C1)C1CC1 (configuration not stated) | 0 | 9 | 0 | 12 | 1.7 | 6599 | -21
O=C(CSCC(=O)Nc1nc(-c2ccc3c(c2)OCO3)cs1)Nc1nccs1 | 15 | 4 | 7 | -24 | -18 | 5535 | -22
O=C1c2ccccc2C(=O)N1c1cccc2cccnc12 | 7 | 1 | 10 | -9 | 4.2 | 2033 | -23
CC(C)(C)Nc1nc(NN)nc(NC(C)(C)C)n1 | -20 | 7 | 0 | -1 | 5.2 | 3008 | -3
CCNCC(=O)N1c2ccccc2CCc2ccc(NC(=O)OC(C)C)cc21 | -2 | -1 | -10 | -20 | -2.8 | 3816 | -28
CCN(CC)CCN(C(=O)/C=C/c1cccs1)c1nc2ccc(F)cc2s1 | -11 | 2 | 6 | 2 | -7.2 | 5894 | -29
O=C(NCc1cccnc1)c1ccc(NC(=O)c2ccc([N+](=O)[O-])cc2)cc1 | 3 | 0 | -5 | 50 | 1.1 | 4615 | -9
COC(=O)CN(C)C(=O)CC1C(=O)NCCN1CC(C)(C)C (configuration not stated) | 4 | -7 | 5 | 12 | 2.8 | 2085 | -10
CCCCc1ccc(NC(=O)CC(C)=O)cc1 | 0 | 3 | 3 | 11 | 1.7 | 6178 | -22
O=C(CSc1nnc(CNC(=O)c2cccs2)o1)NCC1CCCO1 (configuration not stated) | 11 | 14 | 13 | 4 | 4.0 | 2189 | -17
Cc1c(Cl)ccc2sc(N3CCN(C(=O)C4=COCCO4)CC3)nc12 | -11 | 19 | 2 | 1 | -5.0 | u | 2
Cc1ccc(N2CC(C(=O)N3CCC(C(=O)Nc4nnc(C(C)(C)C)s4)CC3)CC2=O)cc1 (configuration not stated) | 0 | 2 | -3 | -10 | 2.0 | 4511 | -8
CCN(C(=O)CN1CCN(S(=O)(=O)c2cc(Cl)ccc2Cl)CC1)c1c(N)n(Cc2ccccc2)c(=O)[nH]c1=O | 7 | 6 | 2 | -7 | 7.9 | 1985 | -10
CCn1ncc(C2=NOC(C(=O)Nc3ccccc3C(=O)OC)C2)c1C (configuration not stated) | 4 | 0 | 0 | -4 | 1.4 | 21891* | 0
COc1ccc(Nc2nc(-c3cccs3)cs2)c(OC)c1 | 26 | 15 | 15 | 12 | -1.3 | 9837 | -74
CCCc1ccc(C(C)NC(=S)NCc2ccc(F)cc2)cc1 (configuration not stated) | -21 | -3 | -4 | 2 | -11 | 6361 | -8
COc1ccc2cc(C3OCCO3)c(Cl)nc2c1 | 8 | 11 | 10 | x | 5.6 | 3961 | -74
COCCCn1c(SCC(=O)NC2CCCCC2)nnc1-c1ccco1 | 1 | 1 | -4 | 6 | -0.3 | 3940 | -5
CC(C)(C)NC(=O)CN(CC1CCCO1)C(=O)CNS(=O)(=O)c1ccc(F)cc1 (configuration not stated) | 13 | 7 | 11 | -12 | 3.3 | 3968 | -10

(listing goes on)
SMILES | ugtP null kill | Mtb hypoxia inh | Mtb hypoxia inh growth | BJeLR lethal | RN4220 kill | Autofluor counter | PrP UTR inh
Cc1ccsc1C(=O)OC(C)C(=O)NC1CCCCC1C (configuration not stated) | 0 | 8 | 7 | x | 3.4 | u | -9
O=C(O)C1(c2ccccc2)CCN(S(=O)(=O)c2cccc(Cl)c2)CC1 | 1 | 6 | 6 | -2 | 6.7 | 5202 | -6
O=C1CCCC2=C1C(c1ccccn1)Nc1ccc(C(=O)c3ccccc3)cc1N2 (configuration not stated) | 2 | -8 | 5 | 7 | 5.4 | 2238 | 0
Cc1ccnc(NS(=O)(=O)c2cc([N+](=O)[O-])ccc2C)c1 | 4 | 10 | 13 | 7 | 4.9 | 2148 | -29
O=c1c2ccccc2nc(SCc2cc(F)ccc2F)n1C1CCCC1 | 38 | 6 | 2 | 3 | 7.0 | 8023 | x
COc1ccc(C(C#N)=C2C=CC(=NO)C=C2)cc1 | -7 | 6 | 4 | -4 | 7.6 | 3979 | -34
Cc1ccc(Cn2nnnc2CN2CCC(n3nnc4ccccc43)CC2)cc1 | 1 | 3 | 6 | 0 | 3.2 | 4598 | -3
O=C(Nc1ccc(C(=O)N2CCCC2)cc1)c1ccc(F)cc1Cl | -1 | 5 | 8 | 3 | -1.9 | 5166 | -7
Cn1c(=O)c2c(nc(N3CCCC3)n2C)n(C)c1=O | 8 | -4 | -2 | 12 | 2.3 | 3072 | -15
Cc1nc2nc(SCC(=O)NCCCN3CCOCC3)nn2c(C)c1Cc1ccccc1 | 6 | 8 | 13 | 6 | 0.7 | 3510 | -23
Brc1ccc(/C=N/n2cnnc2)s1 | x | x | x | -2 | x | 6045 | -17
CCCCN(CCCC)CC1OCc2ccccc2CO1 | -6 | -1 | 3 | 12 | -3.4 | 20889* | -15
COC(=O)c1ccc2c(=O)[nH]c(COC(=O)CCC(=O)c3ccc(Cl)cc3)nc2c1 | -1 | -6 | 6 | 1 | -0.5 | 6540 | -14
Cc1nnc(SCC(=O)N2CCN(c3ccccc3)CC2)n1C1CC1 | 5 | 2 | -2 | x | 3.1 | x | -17
CCN(CC(=O)Nc1cc(Cl)ccc1C)C(=O)CCS(=O)(=O)c1ccc(Cl)cc1 | 12 | 11 | 3 | -6 | 2.2 | 5978 | -29
Cc1ccc(/C=N/Nc2ccnc3cc(Cl)ccc23)c(C)c1 | x | x | x | 20 | x | 2372 | -28
O=C(Nc1nc(-c2ccccc2)c(C(=O)c2ccccc2)s1)c1ccc(S(=O)(=O)N2CCCCC2)cc1 | -9 | -3 | -3 | 1 | 3.3 | 8816 | -11
CCN(CC(=O)Nc1cccc(S(=O)(=O)N2CCCC2)c1)CC(=O)Nc1ccccc1OC | 20 | 8 | 2 | 13 | 6.7 | 4343 | -9
Cc1cccc(C)c1-n1c(C)cc(C=NNC(=O)CSc2ncccn2)c1C | 7 | 4 | 6 | x | 5.2 | x | x
CC(=O)NCCNC(=O)c1ccc(-n2c(C)ccc2C)cc1 | 2 | -3 | 5 | 1 | 0.4 | 4353 | -32
Cc1cc(NC(=O)c2cccs2)no1 | -8 | -7 | 12 | 6 | -2.1 | 5248 | -20
CCOC(=O)CSC1=C(C#N)C(c2ccco2)C(C(=O)OCc2ccccc2)=C(C)N1 (configuration not stated) | -11 | 4 | 1 | 1 | 2.7 | 10201 | -13
O=C(NCCc1csc(-c2ccccc2)n1)c1ccco1 | -2 | 7 | 15 | 6 | 6.3 | 6451 | -32
CCOc1ccc(-c2nnn(CC(=O)NCc3cccs3)n2)cc1 | 15 | 3 | -8 | 12 | -0.2 | 5877 | -14
COc1ccc(N/N=C(/N=Nc2nc(C)cc(=O)[nH]2)c2ccccc2)cc1 | x | x | x | 67* | x | 2063 | -38

Given as labelled records: 3 of the compounds above
> O=C(O)C1(c2ccccc2)CCN(S(=O)(=O)c2cccc(Cl)c2)CC1
  ugtP null kill: 1	Mtb hypoxia inh: 6	Mtb hypoxia inh growth: 6	BJeLR lethal: -2	RN4220 kill: 6.7	Autofluor counter: 5202	PrP UTR inh: -6
> O=C1CCCC2=C1C(c1ccccn1)Nc1ccc(C(=O)c3ccccc3)cc1N2 (configuration not stated)
  ugtP null kill: 2	Mtb hypoxia inh: -8	Mtb hypoxia inh growth: 5	BJeLR lethal: 7	RN4220 kill: 5.4	Autofluor counter: 2238	PrP UTR inh: 0
> Cc1ccnc(NS(=O)(=O)c2cc([N+](=O)[O-])ccc2C)c1
  ugtP null kill: 4	Mtb hypoxia inh: 10	Mtb hypoxia inh growth: 13	BJeLR lethal: 7	RN4220 kill: 4.9	Autofluor counter: 2148	PrP UTR inh: -29

Other records follow.
SMILES | ugtP null kill | Mtb hypoxia inh | Mtb hypoxia inh growth | BJeLR lethal | RN4220 kill | Autofluor counter | PrP UTR inh
CCn1c(-c2ccccc2)c(C(=O)CCl)c2ccccc21 | 99* | 15 | 12 | 2 | 97* | 4224 | -17
COc1cccc(-n2c(CN3CCN(c4cccc(C)c4)C(C)C3)nc3ccc([N+](=O)[O-])cc3c2=O)c1 (configuration not stated) | -3 | 7 | 6 | 4 | 2.2 | 8556 | -23
COc1ccc(N2C(=O)N(Cc3ccc(C)cc3)c3ccccc3S2(=O)=O)cc1 | 4 | 7 | 8 | 11 | -13 | 4319 | -18
Cc1ccc(N2C(=O)C3C(C2=O)N2CCCN2C3c2ccccc2)cc1C (configuration not stated) | 6 | 10 | 3 | -1 | 1.1 | 4608 | -23
CCCCCCNC(=O)CC(NS(=O)(=O)c1ccc(NC(C)=O)cc1)C(C)C (configuration not stated) | -3 | 2 | 7 | -1 | 1.5 | 11011 | -10
CCN(CC)S(=O)(=O)c1ccc(NC(=O)c2ccc(N(C)S(C)(=O)=O)cc2)cc1 | -4 | x | x | 29 | 0.6 | 4787 | -20
Cc1ccc(-c2nnc(Nc3ccc(O)cc3)c3ccccc23)cc1S(=O)(=O)NCCO | -2 | -7 | -17 | -2 | 5.4 | 4090 | -16
C=CCn1c(-c2cc(Cl)ccc2OC)n[nH]c1=S | 4 | x | x | 1 | 0.0 | 2368 | -22
Cc1ccc(-c2n[nH]c(=S)n2/N=C/c2ccc(C(=O)O)cc2)cc1 | x | x | x | -12 | x | 3932 | -17
CCCCC(NS(=O)(=O)c1ccc(OC)cc1)C(=O)O (configuration not stated) | -9 | 4 | 13 | 13 | 9.4 | 5708 | -23
Cc1c(C(=O)NCc2ccco2)oc2c(F)cccc12 | -3 | 1 | 1 | x | -0.2 | 3582 | -37
COc1ccc(S(=O)(=O)Nc2ccccc2N2CCOCC2)cc1[N+](=O)[O-] | 1 | 4 | -1 | 21 | 1.7 | 5169 | 0
CC(=O)c1c(C)[nH]c(C(=O)COC(=O)c2cccnc2Cl)c1C | 4 | x | x | x | 3.2 | 2975 | -25
CC1CCc2c(sc3nc(CN4CCOCC4)nc(NS(=O)(=O)c4cccc([N+](=O)[O-])c4)c23)C1 (configuration not stated) | -14 | 2 | 9 | -10 | 20 | 4208 | -20
CN(CC(=O)NC(=O)NCc1ccco1)Cc1nc2ccccc2c(=O)[nH]1 | 2 | -1 | 7 | -10 | 1.8 | 7891 | -21
CC(=O)Nc1nonc1-c1ccccc1 | 2 | 4 | 13 | -1 | 5.9 | 20934* | -21
COc1cc(/C=C/C(=O)c2ccc(NS(=O)(=O)c3ccc(C)cc3)cc2)ccc1OC(F)F | -1 | 15 | 14 | -9 | -6.7 | 2090 | -13
O=C(COC(=O)COc1ccc(Br)cc1)NCCC1=CCCCC1 | 3 | 11 | 5 | 0 | 5.5 | 2602 | -6
CCOC(=O)N1CCN(c2cc3nccnc3cc2F)CC1 | 0 | -7 | -11 | 3 | -3.7 | 22764* | -1
O=C(O)CC1S/C(=N/N=C2CCCCC2)N(c2ccccc2)C1=O (configuration not stated) | x | x | x | 4 | x | 7130 | -14
Cc1ccc(C2=NS(=O)(=O)N(C)C(C(=O)N(C)C3CCCCC3)=C2)cc1 | 10 | 3 | 5 | 10 | 1.7 | 6127 | 2
ON=Cc1ccccc1Oc1ccc(Cl)cc1 | 62 | 13 | 6 | x | 3.6 | x | x
CCOc1ccc(NC(=O)COC(=O)C2CC2C)cc1 (configuration not stated) | 5 | 15 | 19 | x | 2.3 | 4031 | -34
Cc1ccc(C(=O)CC2(O)C(=O)N(Cc3ccccc3)c3ccccc32)o1 (configuration not stated) | -6 | 1 | 6 | 1 | -14 | 2816 | -31
COc1ccc(S(=O)(=O)N(C)CC(=O)NCCCn2ccnc2)cc1Cl | 7 | 4 | 3 | 1 | 2.4 | 5388 | -14
